nsP2pro inh: inhibitors of chikungunya virus nsP2 protease | FRET peptide cleavage, nsP2pro, fluorescence 1 h | Q8JUX6 | AID 1964107 | Potency, µM (highest dose often 24.9 µM), without a hit: at the top dose activity change, negative = inhibition, most hits filed as inhibitors | 31,000 tested, 1.1% active; active means well fitted inhibition curve with a large enough effect; inconclusive means small, poorly fitted or top-dose-only effect; inactive means no such curve, though single readings can be large or run the other way; further: nearly all actives have a fitted effect of over 60% in size; a reference inhibitor and vehicle were the controls
Active calls of the source: *; ? = inconclusive; & = joins results of further samples; ! = repeats disagree; [ ] = dose if it differs, or a comment. On the % scale 0 is the no-effect control and ±100 the full control effect; potency means the concentration at half of the fitted maximal effect. Only part of the results is shown (hit frequency here may not be typical).

canonical_smiles | nsP2pro inh
CC1(C)OC(=O)C(OCC2CC2)=C1c1ccc(S(C)(=O)=O)cc1 | -7.7%&-1.1%
FC(F)(F)c1ccc(Nc2nc3ccc(Oc4ccnc(-c5ncc(C(F)(F)F)[nH]5)c4)cc3[nH]2)cc1 | 268.0%[activator]
Cc1csc(N(C(=O)CSc2ccc(-c3ccccc3)nn2)C2CC2)n1 | ?
COC(=O)c1ccc2c(c1)nc(NC(=O)c1ccccc1)n2CCCc1ccccc1 | 44.4%[activator]
CC1(O)CC(c2nc(-c3ccc4ccc(-c5ccccc5)nc4c3)c3c(N)nccn23)C1 (configuration not stated) | 204.5%[activator]
CCn1c(=O)c(-c2ccn[nH]2)cc2c(C)nc(N)nc21 | 3.6%
COc1cccc(-c2cc(F)ccc2C2Cc3nc(N)nc(C)c3C(=O)N2)n1 (configuration not stated) | -20.1%
Cc1cccc(-c2[nH]c(Cc3cccc(C(N)=O)c3)nc2-c2ccc3nccnc3c2)n1 | 137.0%[activator]
CS(=O)(=O)c1ccc(-n2nc(C(F)(F)F)cc2-c2ccc(F)cc2)cc1 | 10.1%
CCNc1nc(Nc2cc(F)c(C(=O)N3CCOCC3)cc2OC)ncc1C(F)(F)F | 8.1%
CCNC(=O)Nc1ccc2ncc(Nc3ccc(C)cc3)nc2n1 | -7.7%
CC(C)CC(C(=O)NC(C(=O)OC1CCCC1)c1ccccc1)C(O)C(=O)NO (configuration not stated) | -19.8%
CC[C@H](CO)Nc1nc(Nc2cccc(-c3ccccn3)c2)c2ncn(C(C)C)c2n1 | 18.8%
CC(C)(C)NCC(O)COc1ccccc1OCC1CCCO1 (configuration not stated) | ?
COC(=O)C1=CO[C@@H](O[C@@H]2O[C@H](CO)[C@@H](O)[C@H](O)[C@H]2O)[C@@H]2[C@@H](C)[C@@H](O)C[C@H]12 | -8.5%&-5.4%&-9.8%
CCN(CC)CCCS(=O)(=O)N[C@H](CCc1ccccc1)c1nc(Cc2ccc(Br)cc2)no1 | 48.9%[activator]
CN1CCC(=C2c3ccccc3CCc3sccc32)CC1 | 3.8%
O=C(O)[C@@H](O)[C@H](O)[C@H](O)[C@@H](O)C(=O)O | -1.9%
C#C[C@]1(OC(C)=O)CC[C@H]2[C@@H]3CCC4=C/C(=N/O)CC[C@@H]4[C@H]3CC[C@@]21CC | -1.8%
COc1cc2ncnc(Nc3ccc(F)c(Cl)c3)c2cc1NC(=O)/C=C/CN1CCCCC1 | 63.8%[activator]

(next part)
canonical_smiles | nsP2pro inh
Cc1cn([C@@H]2C[C@@H](O)[C@H](CO)O2)c(=O)[nH]c1=O | -25.0%&-12.6%&3.2%
N/C(=N\N=C\c1ccc(Cl)cc1)N/N=C/c1ccc(Cl)cc1 | 1.8%
COC(=O)c1cccnc1 | -0.3%
CCOc1ccc(S(=O)(=O)N2CCCCCC2)c2ccccc12 | 28.9%
COc1ccc(CN(CCN(C)C)c2ccccn2)cc1 | 2.5%
Cn1c2ccc(NC(=O)c3ccccc3)cc2c(=O)n2nc(C(=O)O)cc12 | -11.0%[10 µM]
COc1cc(N2CCC(N3CCN(C)CC3)CC2)ccc1Nc1ncnc(Nc2ccccc2S(=O)(=O)C(C)C)n1 | 26.3%
COc1cc2c(cc1-c1c(C)noc1C)ncc1[nH]c(=O)n([C@H](C)c3ccccn3)c12 | ?
CCN(CC)C(=O)Nc1ccc(OCC(O)CNC(C)(C)C)c(C(C)=O)c1 (configuration not stated) | -11.3%&-22.7%
C[C@H](Oc1cc(-n2cnc3ccc(CN4CCN(C)CC4)cc32)sc1C(N)=O)c1ccccc1C(F)(F)F | 80.4%[activator]
CC(C)CC(=O)Nc1n[nH]c2c1CN(C(=O)C1CCN(C)CC1)C2(C)C | 13.9%
CC(C)(C)NCCCNC(=O)c1cccc(Br)c1 | -7.8%
Nc1nc(Nc2ccc(S(N)(=O)=O)cc2)nn1C(=O)c1c(F)cccc1F | 43.0%
Cc1nc(NC(=O)N2CCC[C@H]2C(N)=O)sc1-c1ccnc(C(C)(C)C(F)(F)F)c1 | -17.5%&5.5%&0.2%
O=C(c1cc(Cc2n[nH]c(=O)c3ccccc23)ccc1F)N1CCN(C(=O)C2CC2)CC1 | ?
Cc1c(F)ccc(C(=O)Nc2cc([N+](=O)[O-])ccc2N2CCN(C)CC2)c1Cl | 16.0%
CC(C)(C)c1cc(C(=O)O)c(NC(=O)Nc2ccc3[nH]ncc3c2)s1 | 3.3%
CC(C)(C)Nc1nc(Nc2ccc(C(N)=O)cc2)cc(N)c1C#N | 22.2%
O=C(c1ccc(F)c(F)c1Nc1ccc(I)cc1F)N1CC(O)([C@@H]2CCCCN2)C1 | 6.2%&49.2%
Cn1c(=O)c(-c2c(Cl)cccc2Cl)cc2cnc(Nc3cccc(C(=O)O)c3)nc21 | -5.7%

Other structures:
canonical_smiles | nsP2pro inh
CCC1C(=O)OCC1Cc1cncn1C (configuration not stated) | 0.6%
NS(=O)(=O)c1cc(C(=O)NN2C[C@H]3[C@H]4CCC(C4)[C@H]3C2)ccc1Cl | 0.8%
CN1CCN(c2ccc(C(=O)Nc3n[nH]c4ccc(Cc5cc(F)cc(F)c5)cc34)c(NC3CCOCC3)c2)CC1 | 61.2%&112.8%[activator]
CN1CCc2c(c3ccccc3n2Cc2ccc(C(=O)NO)cc2)C1 | 22.5%&3.3%&0.7%&-4.7%
CNC(=O)c1ccc2c(c1)CCO[C@H]2CCN1CCN(c2ccc(OC)cc2)CC1 | -7.3%
CC(C)n1cnc2c(NCCc3ccc(O)cc3)nc(-c3csc4ccccc34)nc21 | 70.4%[activator]
Cc1cc2c(s1)Nc1ccccc1N=C2N1CCN(C)CC1 | 11.1µM*!
COc1ccccc1OCC(O)COC(N)=O (configuration not stated) | ?
CCN1C[C@H](C)n2c(c(O)c3c(=O)n(Cc4ccc(F)c(Cl)c4)nc(C(=O)NC)c32)C1=O | -12.5%&-13.6%&-10.9%
Cn1c(NC[C@@H](N)Cc2ccccc2)nc(-c2ccncc2)c(-c2ccc3ccccc3c2)c1=O | 53.9%
CCCSS/C(CCO)=C(\C)N(C=O)Cc1cnc(C)nc1N | 8.81µM*
NC(=O)[C@@H]1CC[C@H](c2ccc(OCc3ccccc3F)cc2)N1 | 0.6%
COc1cccc(CCc2ccccc2OCC(CN(C)C)OC(=O)CCC(=O)O)c1 (configuration not stated) | 4.4%
Nc1nc(CC(=O)Nc2ccc(CCNC[C@H](O)c3ccccc3)cc2)cs1 | -5.3%&9.9%
COc1cc2c(Oc3ccc4[nH]c(C)cc4c3F)ncnc2cc1OCCCN1CCCC1 | 176.1%[activator]
CNC(=O)c1cccc2cc(Oc3ccnc4cc(OCC5(N)CC5)c(OC)cc34)ccc12 | 42.9%[activator]
c1ccc(N2CCN(CCc3nn[nH]n3)CC2)cc1 | -14.0%
CC[C@H](NC(=O)c1c(O)c(-c2ccccc2)nc2ccccc12)c1ccccc1 | -26.6%
Cc1ccccc1C(C(=O)NC1CCCCC1)N(C(=O)CNc1ccc(C#N)cc1)c1cccc(F)c1 (configuration not stated) | ?
O=S(=O)(O)c1ccc2nc(-c3ccccc3)[nH]c2c1 | 1.4%

Arranged by molecular weight (descending): 3 of the compounds above
canonical_smiles | nsP2pro inh
CC[C@H](CO)Nc1nc(Nc2cccc(-c3ccccn3)c2)c2ncn(C(C)C)c2n1 | 18.8%
CS(=O)(=O)c1ccc(-n2nc(C(F)(F)F)cc2-c2ccc(F)cc2)cc1 | 10.1%
O=S(=O)(O)c1ccc2nc(-c3ccccc3)[nH]c2c1 | 1.4%

No new results follow: entries from further up.
canonical_smiles | nsP2pro inh
Cc1c(F)ccc(C(=O)Nc2cc([N+](=O)[O-])ccc2N2CCN(C)CC2)c1Cl | 16.0%
CC(C)(C)c1cc(C(=O)O)c(NC(=O)Nc2ccc3[nH]ncc3c2)s1 | 3.3%
CC(C)(C)Nc1nc(Nc2ccc(C(N)=O)cc2)cc(N)c1C#N | 22.2%
O=C(c1ccc(F)c(F)c1Nc1ccc(I)cc1F)N1CC(O)([C@@H]2CCCCN2)C1 | 6.2%&49.2%
Cn1c(=O)c(-c2c(Cl)cccc2Cl)cc2cnc(Nc3cccc(C(=O)O)c3)nc21 | -5.7%
CCC1C(=O)OCC1Cc1cncn1C (configuration not stated) | 0.6%
NS(=O)(=O)c1cc(C(=O)NN2C[C@H]3[C@H]4CCC(C4)[C@H]3C2)ccc1Cl | 0.8%
CN1CCN(c2ccc(C(=O)Nc3n[nH]c4ccc(Cc5cc(F)cc(F)c5)cc34)c(NC3CCOCC3)c2)CC1 | 61.2%&112.8%[activator]
CN1CCc2c(c3ccccc3n2Cc2ccc(C(=O)NO)cc2)C1 | 22.5%&3.3%&0.7%&-4.7%
CNC(=O)c1ccc2c(c1)CCO[C@H]2CCN1CCN(c2ccc(OC)cc2)CC1 | -7.3%
CC(C)n1cnc2c(NCCc3ccc(O)cc3)nc(-c3csc4ccccc34)nc21 | 70.4%[activator]
Cc1cc2c(s1)Nc1ccccc1N=C2N1CCN(C)CC1 | 11.1µM*!
COc1ccccc1OCC(O)COC(N)=O (configuration not stated) | ?
CCN1C[C@H](C)n2c(c(O)c3c(=O)n(Cc4ccc(F)c(Cl)c4)nc(C(=O)NC)c32)C1=O | -12.5%&-13.6%&-10.9%
Cn1c(NC[C@@H](N)Cc2ccccc2)nc(-c2ccncc2)c(-c2ccc3ccccc3c2)c1=O | 53.9%
CCCSS/C(CCO)=C(\C)N(C=O)Cc1cnc(C)nc1N | 8.81µM*
NC(=O)[C@@H]1CC[C@H](c2ccc(OCc3ccccc3F)cc2)N1 | 0.6%
COc1cccc(CCc2ccccc2OCC(CN(C)C)OC(=O)CCC(=O)O)c1 (configuration not stated) | 4.4%
Nc1nc(CC(=O)Nc2ccc(CCNC[C@H](O)c3ccccc3)cc2)cs1 | -5.3%&9.9%
COc1cc2c(Oc3ccc4[nH]c(C)cc4c3F)ncnc2cc1OCCCN1CCCC1 | 176.1%[activator]
CNC(=O)c1cccc2cc(Oc3ccnc4cc(OCC5(N)CC5)c(OC)cc34)ccc12 | 42.9%[activator]
c1ccc(N2CCN(CCc3nn[nH]n3)CC2)cc1 | -14.0%
CC[C@H](NC(=O)c1c(O)c(-c2ccccc2)nc2ccccc12)c1ccccc1 | -26.6%
Cc1ccccc1C(C(=O)NC1CCCCC1)N(C(=O)CNc1ccc(C#N)cc1)c1cccc(F)c1 (configuration not stated) | ?
O=S(=O)(O)c1ccc2nc(-c3ccccc3)[nH]c2c1 | 1.4%

(listing goes on)
canonical_smiles | nsP2pro inh
COc1cc(OC)c2c(=O)[nH]c(-c3cc(C)c(OCCO)c(C)c3)nc2c1 | -7.4%
CCCn1ncc(CN2CCCC(C(=O)c3cccc(OC(C)C)c3)C2)c1C (configuration not stated) | 29.2%
O=C(c1ccc(Cl)c([N+](=O)[O-])c1)N1CCN(c2ccccc2F)CC1 | 1.5%
COc1ccc(C(=O)Nc2nc3ccccc3n2CCOc2ccc(Cl)cc2)cc1 | 36.4%[activator]
CN(C)CCCN1c2ccccc2Sc2ccccc21 | 24.4%&2.9%
COC(=O)c1ccc(N2CCN(C)CC2)c(NC(=O)c2cccc(OC)c2)c1 | 8.6%
CC(=O)O[C@]1(C(C)=O)CC[C@H]2[C@@H]3C=C(Cl)C4=CC(=O)[C@@H]5C[C@@H]5[C@]4(C)[C@H]3CC[C@@]21C | -3.4%&5.8%
CCN(CC)C(=O)C(c1ccccc1)N1CCN(c2ccc(NC(=O)c3ccccc3-c3cccnc3)cc2F)CC1 (configuration not stated) | 1.5%
N=C(N=C(N)N)N1CCOCC1 | -10.8%
N#Cc1cccc(-c2c[nH]c3ncnc(N4CCOCC4)c23)c1 | 7.6%
Cc1cc(-c2nc3cc(F)ccc3s2)ccc1NC(=O)[C@@H](N)CCCCN | 293.4%[activator]
CC(=O)c1ccc(OCC(=O)N2CCCCC2)cc1 | -2.9%
CCN1CCN(Cc2ccc(C(=O)Nc3ccc(C)c(Oc4ccc5c(c4)CC(=O)N5)c3)cc2C(F)(F)F)CC1 | 77.2%[activator]
OC1(c2ccc(Cl)c(C(F)(F)F)c2)CCN(CCCC(c2ccc(F)cc2)c2ccc(F)cc2)CC1 | 33.0%[activator]
Cc1coc2c1C(=O)C(=O)c1c-2ccc2c1CCCC2(C)C | ?
O=C(NCC(=O)N1CCCC1)Nc1ccc2cnccc2c1 | 0.1%
CC1c2ccccc2CN1NC(=O)c1ccc(Cl)c(S(N)(=O)=O)c1 (configuration not stated) | 9.0%
Cc1ccccc1N=Nc1ccc(N=Nc2c(O)ccc3ccccc23)c(C)c1 | -12.6%

High-throughput results from PubChem BioAssay.
